# Assay outcomes: PubChem, National Center for Advancing Translational Sciences (NCATS)
# Prx2 Sm inh: blocks S. mansoni peroxiredoxin 2 enzymatic activity | S. mansoni Prx2 activity coupled to TGR/GSH (TGR is thioredoxin glutathione reductase), NADPH fluorescence loss, qHTS; some inactives read as strong as hits | Potency, µM | 65,000 tested, 0.07% active | AID 448; active means full or partial inhibition curve with a strong effect at the top dose; inconclusive means weaker partial or single-point curve; inactive means no accepted curve; further: series up to 57 µM; many of its hits are not listed in these tables
#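 Prx2 activity was followed as the loss of NADPH fluorescence (ex 365/em 450 nm), read every 30 sec for 8 min after H2O2 start. The enzyme mix (50 nM Prx2, 25 nM TGR, GSH, NADPH; pH 7.4 phosphate buffer) was incubated with compound for 15 min at room temperature first.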
# LT uptake inh: anthrax lethal toxin internalization inhibition | Cells, anthrax lethal toxin internalization, FRET ratio (460/530) | Potency, µM (top dose mostly 40 µM), inactives show top-dose activity change, negative = inhibition, usual class: inhibitors | 70,000 tested, 0.67% active | AID 912; active = well fitted falling ratio curve with the 530 nm signal flat; inconclusive = other ratio curves, or a change in one channel alone; inactive = flat curves in the ratio and both channels; the % refers to the ratio; further: on the % scale 0 is the no-effect control and ±100 the full control effect; nearly all actives have a fitted effect of over 50% in size; tested in ME-180 cells; beta-lactamase reporter
# Active calls of the source: *; ? = inconclusive; . = no result given; & = joins results of further samples; [ ] = dose if it differs, or a comment. Potency means the concentration at half of the fitted maximal effect. Only part of the results is shown. The share of hits here may be higher or lower than overall.
SMILES	Prx2 Sm inh	LT uptake inh
Cc1nn(-c2ccccc2)c(C)c1C(=O)Nc1nnc(-c2ccco2)o1	>57	2.8%
CC1=C(C(=O)OC(C)C)C(c2cccc(F)c2)n2ncnc2N1 (configuration not stated)	>57	?
c1cc(N2CCCC2)ccc1C(c1nnnn1C1CCCCC1)N1CCOCC1 (configuration not stated)	>57	-22.0%
CCS(=O)(=O)N1CCCC(C(=O)N2CCC3(CC2)OCCO3)C1 (configuration not stated)	>57	0.3%
O=C(CCS(=O)(=O)c1cccs1)Nc1ccc(C(=O)NCc2cccs2)cc1	>57	0.4%
CC1(C)CCCC2=C1CC1C(=O)N(Cc3cccnc3)C(=O)C1C2 (configuration not stated)	.	-5.1%
COc1ccc2c(=O)cc(-c3ccncc3)oc2c1OC	>57	-1.5%[8 µM]
O=C(Cn1cccc1)NC1CCCCCC1	>57	-2.9%
Cc1cccc(C(=O)N(C)c2nnc(-c3ccncc3)s2)c1	>57	-15.2%
CC1(C)CCC(C)(C)c2cc(C(=O)Nc3ccc(C(=O)O)cc3)ccc21	>57	?
O=C1NC(=O)C(Cc2cccs2)C(=O)N1	>57	-1.2%
Cc1c(C(=O)NCCC2=CCCCC2)oc2ccc(S(=O)(=O)N3CCOCC3)cc12	>57	?
Oc1cc(CN2COc3ccccc32)c(O)cc1CNC1CCCCC1	>57	?
COCCCN1C(=O)C(=O)/C(=C(/O)c2ccccc2)C1c1ccc2c(c1)OCO2 (configuration not stated)	>57	-5.9%
Cc1noc(NS(=O)(=O)c2ccc(NC(=O)C34CCC(CC3)C4)cc2)c1C	>57	11.0%
CCOc1cccc(/C(O)=C2/C(=O)C(=O)N(CCOC)C2c2ccc(C)o2)c1 (configuration not stated)	>57	-6.3%
Cc1nnc(SCC(=O)N2CCCCC2)s1	>57	8.2%
COc1ccc(CNc2nc3nc(C)c(Cl)c(=O)n3[nH]2)cc1OC	>57	-1.9%
CC(C)Cc1nccs1	.	-3.1%
Cc1ccc(-n2ncc3c(=O)n(CC(=O)NC4CCCCC4)cnc32)cc1C	>57	-10.4%
COc1ccc2c(c1OC)C(=O)N1c3ccccc3COC21 (configuration not stated)	>57	6.8%
COC(=O)CSc1nnc(CNC(=O)c2ccc(S(=O)(=O)N3CCCCC3)cc2)n1C	>57	-9.8%
CC(C)Cc1nnc(NS(=O)(=O)c2ccc(Cl)cc2)s1	>57	-14.1%
COc1cccc2c1NC(C(=O)O)C1CC=CC21 (configuration not stated)	>57	-15.7%
Cn1nc(-c2ccc(Cl)cc2)c2cc(C(=O)NCc3ccco3)sc21	>57	?
Cc1cc(F)c(F)c(C(=O)NC2CC2)c1Cl	>57	-6.1%
C/C(Cl)=C\Cn1c(Nc2ccc(C)cc2)nc2c1c(=O)n(C)c(=O)n2C	>57	0.9%
O=C(Cn1c(=O)sc2ccccc21)Nc1ccc2c(c1)OCCO2	>57	12.5%
O=C(c1csc2ccccc12)n1cccn1	>57	?
N#Cc1c(N)nc2c(c1-c1ccc3c(c1)OCO3)CCCCCC2	>57	-24.7%
N#Cc1ccccc1NC(=O)CSc1nnc(-c2ccccc2O)n1-c1ccccc1	>57	-11.4%
Cc1ccc(C)n1-c1ccc(N2CCOCC2)cc1	.	12.8%
CCOc1cccc(=O)c2c(C)n(CC3CCCO3)c(C)c12 (configuration not stated)	>57	?
CN(N=O)c1cc(O)ccc1O	>57	?
Cc1ccc(OCc2nnc(SCC(=O)C(C)(C)C)n2Cc2ccco2)cc1	>57	-14.2%
CCCCOc1ccc(S(=O)(=O)Nc2cccnc2)cc1	>57	0.5%
CSc1nnc2c(n1)OC(c1cccn1C)N(C(C)=O)c1ccccc1-2 (configuration not stated)	>57	-26.4%
Cc1csc2nc(CNC(=O)C3CCCCC3)cn12	>57	2.7%
Cc1ccc(OS(=O)Nc2cccc3nccnc23)cc1 (configuration not stated)	>57	-13.8%
COc1ccc(-c2nc(CS(=O)CC(=O)NCCC3=CCCCC3)c(C)o2)cc1 (configuration not stated)	>57	-15.3%
CC(=O)c1cccc(NC(=O)N2CCCC2C(=O)NCCC(C)C)c1 (configuration not stated)	>57	-2.0%
CC(CN1CCOCC1)OC(=O)c1ccccc1Br (configuration not stated)	>57	-6.6%
C=C(C)Cn1c(SCC(=O)O)nnc1-c1ccc(C(C)(C)C)cc1	>57	17.0%
Cn1c(C(O)c2ccccc2F)nc(Cl)c1Cl (configuration not stated)	>57	5.0%
COc1cc2cc(C(c3nnnn3C3CCCC3)N3CCCCC3)c(=O)[nH]c2cc1OC (configuration not stated)	>57	-13.4%
O=C(Cc1ccccc1)Nc1nc2ccccc2[nH]1	>57	-6.7%
N#Cc1c(NC(=O)CCCN2C(=O)c3ccccc3C2=O)oc(-c2ccccc2)c1-c1ccccc1	.	?
CC1CCCCC1NC(=O)CN1C(=O)NC(C)(c2ccc(OC(F)F)cc2)C1=O (configuration not stated)	>57	-13.3%
N[C@H](C(=O)O)[C@H](N)C(=O)O	>57	2.8%[8 µM]
COCCCN=CC1=C(O)CC(C)(C)CC1=O	>57	14.0%
Cc1ccc(S(=O)(=O)NC(CC(N)=O)C(=O)O)cc1 (configuration not stated)	>57	-1.3%
CCOc1ccccc1NC(=O)C1C2C=CC(O2)C1C(=O)O (configuration not stated)	>57	-4.3%
CCOC(=O)c1c(CC(C)C)csc1NC(C)=O	>57	-20.0%
Cc1ccc(N(C(=O)Cn2nnc3ccccc32)C(C(=O)NCc2ccco2)c2ccc(C)o2)cc1 (configuration not stated)	>57	-23.8%
CC1CCc2nn(CC(=O)NCCN3CCCCC3C)cc2C1 (configuration not stated)	>57	1.1%
CCCc1nnc(SCC(=O)Nc2ccc(OC)cc2)n1N	>57	-16.2%
c1ccc(-c2csc3ncn4nnnc4c23)cc1	>57	-18.2%
CCSc1nc(-c2ccc(OC)cc2)n(-c2nc3ccccc3s2)n1	>57	.
CSc1ccc(-c2nc(CSCC(=O)N3CCOCC3)c(C)o2)cc1	>57	-8.6%
CCC(CC)C(=O)NCc1ccccc1OC	.	-10.8%

# The list goes on:
SMILES	Prx2 Sm inh	LT uptake inh
Cc1cnc(C(=O)Nc2nnc(C(C)C)s2)cn1	>57	6.1%
Cc1cccc(-n2ncc3c(NC4CCCCC4)ncnc32)c1	>57	-21.4%
c1ccc2[nH]c(SCc3ccc(-c4nnco4)cc3)nc2c1	>57	-0.4%
Cc1ccc2c(C)nc(Nc3ncc4c(n3)CCCC4=O)nc2c1	>57	3.9%
CC(C)N1C(=O)C2C(C(=O)NC3CCCCC3)C3C=CC2(O3)C1C(=O)NC1CCCC1 (configuration not stated)	>57	0.8%
Cn1c(=O)[nH]c(=O)c2c1nc(N1CCOCC1)n2CCSc1ncccn1	>57	?
COc1cccc(-n2nnc3c(=O)n(Cc4ccccc4Cl)cnc32)c1	>57	-1.1%
O=C(NCCN1C(=O)C2C3C=CC(C3)C2C1=O)N1CCOCC1 (configuration not stated)	>57	-6.8%
COC(=O)Nc1nnc(SCc2ccc(C)cc2)s1	>57	-1.1%
CCN1CCCC1Cn1c(-c2ccccc2)nc2c(NCCOC)nc(C)nc21 (configuration not stated)	.	1.9%
Nc1nc2c(s1)C(=O)CCC2	>57	-13.6%
NC(=O)c1c(NC(=O)CSc2nnc(-c3ccccc3)n2CC2CCCO2)sc2c1CCC2 (configuration not stated)	>57	-16.4%
CC(=O)C(Sc1ccc2nnc(-c3ccc(C)cc3)n2n1)C(C)=O	>57	18.0%
CCn1c(COc2cccc(OC)c2)nnc1SCC(=O)Nc1cccc(OC)c1	>57	-6.7%
O=C(Nc1ccccc1Sc1ccccc1)C1CCCO1 (configuration not stated)	>57	1.4%
CO[C@H]1COC(=O)CCC[C@@H](C)[C@H](OC)COC(=O)[C@H]2CCCN2C(=O)C/C=C\[C@@H]1C	.	5.3%[8 µM]
N=C(N)SCCc1ccc(CCSC(=N)N)cc1	>57	0.3%
CC1CCC2C(=O)N3C(CCC(C)[C@H]3c3cccc(N4CCCC4=O)c3)C(=O)N2C1c1cccc(N2CCCC2=O)c1 (some centres not stated)	.	1.0%[8 µM]
Cc1cc(Nc2ccc(F)cc2F)n2nc(C)nc2n1	>57	-1.8%
COc1ccc(OC)c(S(=O)(=O)NCCC2=CCCCC2)c1	>57	?
COC(=O)c1ccc(OCCn2cnc3ccccc3c2=O)cc1	>57	1.5%
O=C(Oc1ccccc1)N1CCC2(CCCN(C(c3ccccc3)c3ccccc3)C2)CC1	>57	-4.2%
COC(=O)c1ccc(CSc2nc3c(c(=O)n2-c2ccccc2)SCC3)o1	>57	12.0%
CCCn1c(C)nc2c(NCCN3CCCC3)nc(C)nc21	.	-5.2%
Cc1nn(-c2ccccc2)c2sc(-c3n[nH]c(=S)o3)cc12	>57	-16.7%
COc1ccc(C2N(c3ccc(OC)cc3)C(=O)C3CCCN32)cc1 (configuration not stated)	>57	6.1%
CCOC(=O)N1CCN(S(=O)(=O)c2cccc3ccc(C)nc23)CC1	>57	-6.0%
COc1cccc(-c2cc(C(=O)Nc3cc(OC)c(OC)c(OC)c3)no2)c1	>57	?
CCN(CC)S(=O)(=O)c1cccc(C(=O)Nc2cc(C)nn2-c2nc(C)cc(C)n2)c1	>57	-4.1%
COc1ccccc1C1C(C(=O)c2sc(C)nc2C)=C(O)C(=O)N1CCN1CCOCC1 (configuration not stated)	>57	-7.3%
CC(C)(CO)NC(=O)C(c1ccccc1)c1ccccc1	>57	-3.6%
c1ccc(Cn2ncc3c(N4CCCCC4)ncnc32)cc1	.	-8.9%
COc1ccc(NC(=O)CN2CCN(S(=O)(=O)c3ccc(C(C)C)cc3)CC2)cc1OC	>57	-14.9%
O=C(c1ccc(COc2ccccc2Cl)o1)N1CCN(Cc2ccc3c(c2)OCO3)CC1	>57	?
O=C(Nc1ccccc1C(F)(F)F)c1cc(S(=O)(=O)N2CCC3(CC2)OCCO3)ccc1F	>57	-5.8%
O=C1[C@H]2[C@H]3[C@H](O)[C@H](O)C/C(=N/OC[C@@H](O)COCc4ccco4)[C@H]3CC[C@@H]2C(=O)N1c1cccc(Oc2ccccc2)c1	.	2.2%[8 µM]
CC(=O)c1cccc(-n2nnnc2SCC(=O)Nc2cccc(NC(=O)c3ccco3)c2)c1	>57	-28.3%
COc1ccc(NCc2nnc(SCC#N)n2-c2ccccc2OC)cc1	>57	-6.3%
O=C(Nc1ccc2c(c1)OCO2)C(c1ccccc1)N1CCN(C(=O)c2ccco2)CC1 (configuration not stated)	>57	4.2%
Cc1cc(C)n2c(SCCN3C(=O)c4ccccc4C3=O)nnc2n1	>57	-5.8%
COc1ccccc1-c1coc2cc(O)cc(O)c2c1=O	.	-1.7%
Cc1ccc(Cl)c2c1NC(=O)C2(O)CC(=O)c1ccccc1O (configuration not stated)	>57	14.5%
Cc1sc(NC(=O)c2oc3ccccc3c2C)c(C#N)c1C	>57	-4.6%
Cc1ccc(-c2nn(C)c(=O)c3ccccc23)cc1S(=O)(=O)N1CCCC1	>57	-12.7%
O=C(Nc1ccon1)c1cc(-c2ccccc2)nc2ccccc12	>57	5.6%
CCC(C)(C)n1nnnc1C(c1cc2cc(OC)ccc2[nH]c1=O)N1CCc2ccccc21 (configuration not stated)	>57	-0.4%
CCOCCn1c(SCC)nc2c1c(=O)[nH]c(=O)n2C	>57	-14.6%
Cc1ccc(S(=O)(=O)c2cccc(S(=O)(=O)N3CCCC3)c2)cc1S(=O)(=O)N1CCCC1	>57	?
COc1ccc(S(=O)(=O)NC(C)C(=O)Nc2ccccc2F)cc1 (configuration not stated)	>57	-2.9%
O=C(c1ccc(Br)o1)N1CCN=C1SCc1cccnc1	>57	-29.1%
CCN(CC)c1nc2n(c(=O)n1)CCO2	>57	-1.5%
Cc1ccc(OCC(=O)N2CCCCC2)c(Br)c1	>57	-3.1%
Cc1ccc([N+](=O)[O-])cc1N	.	-3.3%
O=C(Cc1cccs1)OCC(=O)c1ccco1	>57	2.2%
O=C(Cc1ccccc1)Nc1ccc(-c2nnc(-c3ccco3)o2)cc1	>57	-8.9%
CCCCCOc1ccc(C2C(C(C)=O)=C(C)Nc3ncnn32)cc1OC (configuration not stated)	>57	5.7%
CN(C)C(=O)Nc1cnc2ccccc2c1	>57	-13.9%
CCc1cc2c(nc1CC)CCN(CC/C(C)=N/OC[C@@H](O)COCc1ccco1)C2	.	-3.9%[8 µM]
Cn1c(=O)n(C)c2cc(S(=O)(=O)NCc3ccco3)ccc21	>57	-13.7%
COC(=O)c1sc(N2C(=O)C(O)=C(C(=O)c3ccc(C)o3)C2c2ccc(F)cc2)nc1C (configuration not stated)	.	?
CC(=O)[C@@H]1CC[C@@H]2[C@@H]3CCC4=CC(=O)CC[C@@]4(C)[C@H]3CC[C@]21C	>57&>57	-1.4%[3.58 µM]
